LASV entry inh – inhibitors of Lassa virus binding or cell entry; Lassa virus pseudotype entry inhibition, cell reporter; control for the full effect not named in the record; Potency, µM (top dose mostly 37.9 µM), without a hit: at the highest dose activity change, negative = inhibition, usual class: inhibitors; 1.2% of 300,000 active; active means well fitted inhibition curve with a large enough effect; inconclusive means small, poorly fitted or top-dose-only effect, or effect the other way; inactive means flat fitted curve, though single readings scatter; tested in HEK293 cells; note: % is set by controls: 0 for no effect and ±100 for the full control effect; nearly all actives have a fitted effect of over 50% in size; luciferase read-out
Cruzain noTriton – blocks cruzain activity in detergent-free assay; purified cruzain, Z-FR-AMC fluorescence, no detergent; P25779; 2.3% of 200,000 active; Potency, µM, inactives show max response, negative = inhibition, actives largely listed as inhibitors; AID 1476;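 note: plate controls were enzyme without inhibitor for no effect and buffer without enzyme for full effect; nearly all actives have a fitted effect of over 40% in size; top concentration of the series not given in the record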
Target sequence (P25779 123-467 limits assumed): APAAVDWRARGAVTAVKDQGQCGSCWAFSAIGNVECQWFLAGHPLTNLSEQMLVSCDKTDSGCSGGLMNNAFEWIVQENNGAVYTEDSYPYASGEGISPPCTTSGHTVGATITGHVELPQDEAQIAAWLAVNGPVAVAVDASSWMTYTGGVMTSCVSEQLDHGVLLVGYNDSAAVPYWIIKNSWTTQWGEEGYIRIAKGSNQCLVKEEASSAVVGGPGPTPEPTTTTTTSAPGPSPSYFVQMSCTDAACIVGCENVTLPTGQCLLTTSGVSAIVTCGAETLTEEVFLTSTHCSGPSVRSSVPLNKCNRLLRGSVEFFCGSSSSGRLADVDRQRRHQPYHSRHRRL
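Purified cruzain at 1.5 nM, pre-incubated 15 min with compound at room temperature in 100 mM sodium acetate pH 5.5, 5 mM DTT, 0.00005% Triton X-100. Reaction started with 2 uM Z-FR-AMC; AMC fluorescence increase over 60 s gives rate.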
SARS PLP yeast – blocks SARS-CoV papain-like protease in a yeast assay; Potency, µM (series often up to 32.9 µM), without a hit: at the top dose activity, positive = growth rescue; AID 485353; S. cerevisiae expressing SARS-CoV PLpro, growth rescue; control for the full effect not named in the record; 0.19% of 330,000 active; active means well fitted rising curve with a large enough effect; inconclusive means small, poorly fitted or top-dose-only effect; inactive means no such curve, though single readings can be large or run the other way; note: 0% is about no effect; nearly all actives have a fitted effect of over 55% in size; growth read by luminescence after 48 h
RE007 growth inh – less growth of the S. pombe RE007 Vpr strain; S. pombe RE007 Vpr strain, BacTiter-Glo ATP luminescence, 24 h; control for the full effect not named in the record; Potency, µM (highest dose often 92.2 µM), inactives show at the top dose activity change, negative = less growth; 0.21% of 360,000 active; active = well fitted falling curve with a large enough effect; inconclusive = small, poorly fitted or top-dose-only effect; inactive = no such curve, though single readings can be large or run the other way;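 note: % is set by controls: 0 for no effect and ±100 for the full control effect; nearly all actives have a fitted effect of over 50% in size; the assay follows cell death caused by Vpr and the record does not say whether a fall means rescue or toxicity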
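Fission yeast RE007 carrying one integrated HIV-1 vpr copy, seeded at OD 0.01 in PMG+AL medium with 23 nL pinned compound. Grown 24 h at 30 degrees; viability read by BacTiter-Glo luminescence after 5 min.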
StopGo reporter – FMDV 2A StopGo reporter, luciferase signal; Potency, µM (series often up to 57.9 µM), without a hit: at the highest dose signal change, negative = less light; AID 1159524; 1.2% of 410,000 active; human cells with a luciferase reporter of 2A StopGo recoding; control for the full effect not named in the record; active = well fitted falling curve with a large enough effect; inconclusive = small, poorly fitted or top-dose-only effect; inactive = no such curve, though single readings can be large or run the other way; tested in HEK293T cells; note: % is set by controls: 0 for no effect and ±100 for the full control effect; nearly all actives have a fitted effect of over 45% in size; luciferase light after 4 h
NS1 function inh – inhibitors of influenza NS1 protein function; 0.4% of 270,000 active; Potency, µM (highest dose often 46.1 µM), inactives show top-dose activity, positive = more growth; S. cerevisiae slowed by influenza A NS1, growth recovery by OD600; active means well fitted rising curve with a large enough effect; inconclusive means small, poorly fitted or top-dose-only effect; inactive means no such curve, though single readings can be large or run the other way; note: nearly all actives have a fitted effect of over 50% in size
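S. cerevisiae expressing influenza A NS1, grown in glucose, washed, then diluted 1:100 into pH 6.0 -URA galactose medium with 23 nl compound. Growth recovery read as OD600; NS1-free strain serves as control.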
Cruzain inh Det – cruzain (T. cruzi) inhibition with detergent; Potency, µM, for the others: max response, negative = inhibition, actives largely listed as inhibitors; AID 1478; 0.43% of 200,000 active; purified cruzain, Z-FR-AMC fluorescence, 0.01% Triton;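 note: plate controls were neutral wells for no effect and buffer without enzyme for full effect; nearly all actives have a fitted effect of over 40% in size; top concentration of the series not given in the record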
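Detergent-containing arm of a paired screen for aggregation-based inhibition: 0.01% Triton X-100 present. Cruzain at 1.5 nM cleaved 2 uM Z-FR-AMC at pH 5.5 with 5 mM DTT; AMC fluorescence gain over 60 s measured activity.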
MARV entry inh – Marburg virus entry inhibition. Potency, µM (top dose mostly 37.8 µM), for inactives: top-dose activity change, negative = inhibition, usual class: inhibitors. 1.8% of 300,000 active. Marburg virus pseudotyped entry inhibition, cell reporter; control for the full effect not named in the record; about a third of the inactives were read at about 46 µM; active = well fitted inhibition curve with a large enough effect; inconclusive = small, poorly fitted or top-dose-only effect, or effect the other way; inactive = flat fitted curve, though single readings scatter; tested in HEK293 cells; about a fifth of its hits are not listed in these tables; note: % is set by controls: 0 for no effect and ±100 for the full control effect; luciferase read-out
* = called active by the depositor; ? = inconclusive; . = not tested or not shown; & = joins results of further samples; [ ] = dose if it differs, or a comment. Unless noted, calls come from the whole dose curve; as a rule, active = well fitted curve in the direction sought with a large enough effect; inconclusive = small, poorly fitted or top-dose-only effect, or another doubt; inactive = no such curve, though single readings can be large; an effect the other way counts as inactive or inconclusive. Potency is the fitted concentration of half-maximal effect. An unsorted share of the library; overall some 4.7% were active at least once.

SMILES	LASV entry inh	Cruzain noTriton	SARS PLP yeast	RE007 growth inh	StopGo reporter	NS1 function inh	Cruzain inh Det	MARV entry inh
CC1=C(C(=O)OCc2ccccc2)C(c2ccccc2)NC(=O)N1CCCCCC(=O)O (stereo unspecified)	6%	?	19%	11%	-17%	-14%	-3.4%&-4.8%	0%
COc1ccc(C(=O)NC(Cc2ccccc2)c2ccc3c(c2)OCCCO3)cc1 (stereo unspecified)	?	1%	2%	22%	24%	-12%	-0.2%	6%
CCOC(=O)C1=C(C)N(c2ccc(OC)cc2)C(=O)/C1=C\c1cccs1	-5%	19%	-13%	9%	?	-5%	-6.3%	-2%
CCOC(=O)c1c(N)n(-c2ccc(N)cc2)c2nc3ccccc3nc12	1%	-3%	-16%	10%	-24%	0%	-7.7%	2%
O=S(=O)(NCc1ccncc1)c1ccccc1	-10%	1%	2%	-16%	0%	1%	4.4%	-4%
O=C(NC(=S)Nc1ccc(CN2CCCCC2)cc1)c1cccc(OCc2ccccc2)c1	2%	.	-1%	-6%	-19%	4%	.	?
COc1ccc(-n2nc(C(=O)N3CCN(c4cccc(C)c4C)CC3)c3c4ccccc4n(C)c3c2=O)cc1	13%[46.1 µM]	-8%	.	.	-17%	.	1.8%	-2%[46.1 µM]
CCOc1ccc(C(=O)N/N=C/c2ccccc2[N+](=O)[O-])cc1	?	-17%	5%	-2%	?	-13%	-7.0%	12µM*
COC(=O)Cc1ccc(NC(=O)c2ccccc2Br)cc1	-10%	.	-1%	24%	33%[activator]	-1%	.	?
O=C(O)CCC(=O)Nc1ccc(Br)cc1C(=O)c1ccccc1	.	.	0%	3%	-17%	-2%	.	.
C=CCc1cccc2cc(C(=O)Nc3cccc(Cl)c3)c(=O)oc12	?	3%	.	.	59%[activator]	.	0.4%	.
COc1ccc(S(=O)(=O)NCCC(=O)Nc2ccc(C)cc2)cc1	.	.	0%	?	28%	4%	.	7%[46.1 µM]
CN(C)CCCN(C(=O)c1ccc([N+](=O)[O-])o1)c1nc2cc3c(cc2s1)OCO3	.	.	0%	1%	0%	-22%	.	.
Cc1cc(N2CCOCC2)nc2ccc(NC(=S)NC(C)C)cc12	.	.	-2%	2%	16%	-4%	.	.
Cc1ccc(NC(=O)c2cc(-c3cc(Cl)ccc3O)n[nH]2)cc1C	.	.	0%	4%	17%	4%	.	.
Cc1ccc(Nc2nc(-c3cccnc3)nc3ccccc23)cc1	?	.	5%	-11%	-19%	9%	.	4µM*
COC1C=CC=C(C)C(=O)NC2=CC(=O)C(N)=C(CC(C)CC(OC)C(O)C(C)C=C(C)C1OC(N)=O)C2=O (stereo unspecified)	0.45µM*	.	.	6%	10µM*	.	.	0.2µM*
CC(=O)NCC1CCCN(c2nc3nonc3nc2N(C)Cc2ccccc2)C1 (stereo unspecified)	-4%[46.1 µM]	.	-1%	-10%	0%	-3%	.	10%[46.1 µM]
S=C(NCc1ccco1)Nc1ccc2c(c1)OCCO2	-16%	.	-1%	30%	27%	9%	.	7%[14.2 µM]
COc1cccc(CNC(=O)C2CCN(c3nnc(-n4c(C)ccc4C)s3)CC2)c1OC	10%[46.1 µM]	13%	.	.	-13%	.	-1.0%	-11%[46.1 µM]
Cc1ccc(CNC(=O)CN2CCN(Cc3ccc(F)cc3)C2=O)cc1	-1%[46.1 µM]	3%	.	.	6%	.	2.1%	-4%[46.1 µM]
CNc1nc(-c2ccccc2)cc(C(F)(F)F)c1C#N	9%	-22%	4%	-2%	12%	4%	-1.2%	11%
O=C1CC2(CCN(C(=O)c3ccccc3Br)CC2)Oc2ccccc21	-11%	.	-4%	11%	?	.	.	-7%
CCCCN1CC2([N+](=O)[O-])C=CC(=O)C([N+](=O)[O-])(C1)C2CC(=O)c1ccccc1 (stereo unspecified)	?	-12%	-12%	-13%	-16%	1%	-5.6%	0%
Cc1ccc(S(=O)(=O)N2CCC(C(=O)N3CCC4(CC3)OCCO4)CC2)cc1	7%	-2%	-2%	-2%	20%	-7%	2.9%	14%

The list goes on:
SMILES	LASV entry inh	Cruzain noTriton	SARS PLP yeast	RE007 growth inh	StopGo reporter	NS1 function inh	Cruzain inh Det	MARV entry inh
COc1ccc(C(=O)NCCn2cc(SCC(=O)Nc3nnc(C)s3)c3ccccc32)cc1	2%	.	.	-2%	-20%	6%	.	-27%
CCOC(=O)CNc1nc(Cl)nc(Nc2ccc(C)cc2)n1	19%	.	-2%	-5%	11%	-5%	.	10%[46.1 µM]
COc1cc(NC(C)CCCNC(C)C)c2ncccc2c1OC (stereo unspecified)	-22%	.	.	-3%	-12%	.	.	1%
Nc1ccc(C(=O)NCC2(c3ccccc3)CCCC2)cc1	-8%	.	0%	-10%	-23%	-6%	.	1%[46.1 µM]
COc1ccc(N(C(=O)/C=C\C(=O)Nc2ccc(Cl)cc2)C(C(=O)NCc2ccco2)c2ccc(C)cc2)cc1 (stereo unspecified)	?	-29%	.	.	-13%	.	1.6%	.
Cc1cccc(OCCCCn2nnc3sc4c(c3c2=O)CCC(C)C4)c1 (stereo unspecified)	?	-9%	.	.	?	.	-1.4%	14%[46.1 µM]
C/C(=N\NC(=O)c1ccc(O)cc1)c1cccc(NC(=O)c2ccccc2C)c1	?	.	-3%	1%	9%	-2%	.	-25%
O=C1C2C3CCC(C3NCc3ccccc3)C2C(=O)N1Cc1ccccc1 (stereo unspecified)	-17%	-5%	-18%	-1%	0%	-112%	-2.7%	-10%
Cn1c(=O)c2c(ncn2CC(=O)N2CCOCC2)n(C)c1=O	1%	-11%	-5%	15%	-2%	?	0.4%	6%
OC(c1ccc(Cl)cc1)C(O)c1nc2ccccc2[nH]1 (stereo unspecified)	5%	2%	6%	-10%	20%	4%	2.6%	12%
Cc1ccc2c(c1)[nH]c1c(=O)n(CCN3CCCCC3)cnc12	11%	-11%	2%	-10%	5%	-4%	0.0%	1%
CC(C)CC(=O)OCc1cn(-c2ccccc2)nn1	3%	3%	3%	2%	36%[activator]	-1%	1.0%	12%
O=C(CSc1oc(-c2ccccc2)nc1S(=O)(=O)c1ccc(Cl)cc1)NC1CCCCC1	9%[46.1 µM]	-10%	.	.	0%	.	-3.9%	?
COc1ccc(S(=O)(=O)NC2CCCC2)cc1C(N)=O	3%[46.1 µM]	.	1%	-2%	16%	11%	.	-7%[46.1 µM]
COCCNC(=O)Cc1c(C)c2c(cc(C)c3c(C)coc32)oc1=O	.	.	0%	6%	6%	0%	.	.
COCCCn1c(SCC(=O)NC(C)(C)C)nnc1-c1ccccc1	9%	0%	7%	-3%	3%	-5%	8.9%	?
Cc1oc(-c2ccc(-c3ccccc3)cc2)nc1CN(C)C1CCOC1 (stereo unspecified)	.	.	-1%	-1%	0%	2%	.	.
CC(NC(=O)c1ccccc1)c1nnc(SCC(=O)NC2=NCCS2)n1C (stereo unspecified)	13%[46.1 µM]	.	-2%	5%	33%[activator]	6%	.	7%[46.1 µM]
O=C(/C=C/c1ccccc1)NNC(=O)C1CC1	4%	2%	15%	0%	25%	6%	2.3%	18%
CCOC(=O)/C=C/C(=O)Nc1ccc(S(=O)(=O)Nc2nccs2)cc1	?	.	0%	4%	0%	3%	.	5%
N#CC(C#N)=C(N)Nc1cccc(Cl)c1	0%	.	1%	-3%	-13%	-1%	.	?
CCOc1ccc(C(=O)Nc2nnc(C3=COCCO3)o2)cc1	-4%	.	-2%	-10%	2%	-15%	.	10%
Cc1ccc(-c2csc(Nc3ccc(S(N)(=O)=O)cc3)n2)o1	5%	.	14%	2%	?	10%	.	22%[46.1 µM]
COC(=O)C1(C)COP(=O)(NC23CC4CC(CC(C4)C2)C3)OC1 (stereo unspecified)	23%[46.1 µM]	.	.	13%	-17%	.	.	15%
COc1ccc(OC)c(/C=N/NC(=O)c2cnccn2)c1	-18%	.	0%	-13%	7%	-3%	.	-2%

Next section.
SMILES	LASV entry inh	Cruzain noTriton	SARS PLP yeast	RE007 growth inh	StopGo reporter	NS1 function inh	Cruzain inh Det	MARV entry inh
COc1cccc(-c2nc(-c3ccc4c(c3)-c3ccccc3S4(=O)=O)c(-c3ccccc3)[nH]2)c1OC	-11%	13µM*	-13%	-1%	0%	?	-9.7%	?
CCOc1ccc(NS(=O)(=O)c2ccc3nc(-c4ccccc4)[nH]c3c2)cc1	?	3%	.	.	-7%	.	-11%	-15%[46.1 µM]
CCCCCOC(=O)c1cc(=O)[nH]c2ccccc12	3%	-13%	1%	-7%	3%	-47%	5.0%	1%
COc1cnc(SCc2ccc(Cl)c(Cl)c2)nc1Cl	12%	-16%	-32%	-6%	-13%	-119%	-1.7%	-21%&-21%
CCOC(=O)C1CCN(S(=O)(=O)c2ccc(-c3ccc(=O)[nH]n3)o2)CC1	.	.	16%	10%	-23%	1%	.	.
CCCCN(CCCC)c1nc2ccccc2nc1C(C#N)C(=O)NCCCOC (stereo unspecified)	-23%	9%	6%	-7%	-9%	-4%	1.5%	-10%
CCCCNC(=O)c1onc(CSc2cccc3ccccc23)c1C(=O)O	.	7%	-2%	-5%	-11%	-8%	-9.7%	.
Cc1ccnc(NC(=O)CCC(=O)N(CC(=O)NC2CCCCC2)c2cccc(C)c2C)c1	1%	?	-2%	-20%	-19%	-23%	0.4%	-15%&-15%
Nc1c(S(=O)(=O)c2cccs2)c2nc3ccccc3nc2n1/N=C/c1cccc(O)c1	?	?	-5%	29%	40µM*	-63%	-0.8%	?
CCCC(O)(c1ccccc1)C(c1ccccc1)c1ccccn1 (stereo unspecified)	13%[46.1 µM]	.	.	-2%	-17%	.	.	-16%[46.1 µM]
CC(=O)Nc1ccc2c(c1)nc(C)n2Cc1ccccc1	.	.	-7%	0%	-6%	14%	.	.
CC(=O)c1cnc(N2CCCCC2)nc1C	15%	16%	-2%	62%[3.69 µM]	17%	-2%	-0.7%	4%
Cc1cccc(C(=O)Oc2coc(CSc3nnc(NC(=O)C4CC4)s3)cc2=O)c1	21%	-12%	11%	7%	-10%	10%	-6.3%	?
Cc1ccc(S(=O)(=O)N2CCOCC2)cc1C(=O)N1CCN(c2ncccn2)CC1	9%	.	-1%	-3%	-14%	.	.	-2%

Assay outcomes: PubChem, National Center for Advancing Translational Sciences (NCATS)
